Screens deposited in PubChem by National Center for Advancing Translational Sciences (NCATS).
AmpC nodet inh: AmpC beta-lactamase inhibition, detergent-free assay. P00811. AmpC nitrocefin hydrolysis, absorbance 480 nm, no detergent; potencies from a single point are estimates. AID 585. actives 1.8% (n = 71,000). Potency, µM (series often up to 28.7 µM), inactives show top-dose activity change, negative = inhibition; active = falling curve, for most hits resting on a single point; inconclusive = weak or doubtful change; inactive = flat or rising curve; further: % of control where 0% means no effect; about half of the hits show no inhibition at the top dose; a quarter of the inactives give rising signals
Target sequence (P00811 whole entry, looked up): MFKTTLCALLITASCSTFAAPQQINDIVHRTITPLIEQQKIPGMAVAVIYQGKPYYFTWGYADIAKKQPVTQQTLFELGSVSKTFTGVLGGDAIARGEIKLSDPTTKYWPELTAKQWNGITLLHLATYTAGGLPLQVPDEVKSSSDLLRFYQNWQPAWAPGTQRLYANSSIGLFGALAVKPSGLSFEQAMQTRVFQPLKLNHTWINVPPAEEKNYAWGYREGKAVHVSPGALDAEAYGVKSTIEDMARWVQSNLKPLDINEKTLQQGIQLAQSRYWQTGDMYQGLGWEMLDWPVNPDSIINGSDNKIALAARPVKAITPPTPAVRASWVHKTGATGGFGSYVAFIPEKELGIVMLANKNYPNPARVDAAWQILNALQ
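Enzyme, pH 7.0 phosphate. Compound titrations were pre-incubated with AmpC for 15 min at room temperature before nitrocefin (stock 800 uM) addition; product formation was recorded at 480 nm every 20 s for 4 min.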
* hit, by the source's call; ? = inconclusive; [ ] = dose if it differs, or a comment. Potency means the concentration at half of the fitted maximal effect.

No.	SMILES	AmpC nodet inh
1	O=C1CC(N2CC=C(c3ccccc3)CC2)C(=O)N1c1ccc(F)cc1 (stereo not drawn)	-19%
2	CC(Oc1ccc(O)cc1)(P(=O)(O)O)P(=O)(O)O	-2%
3	CCCCn1c(/N=C/c2cc(OC)ccc2O)nc2ccccc21	54%
4	COCCNC(=O)C(c1ccc(C)cc1)N(C(=O)CCC(=O)Nc1ccccn1)C1CCCC1 (stereo not drawn)	112%
5	CCCNC(=O)NCCc1ccncc1	-8%
6	O=C1c2oc3ccccc3c(=O)c2C(c2cccc(F)c2)N1CCCO (stereo not drawn)	-4%
7	CCOC(=O)C1CCN(c2cc(=O)n(Cc3ccc(F)cc3)c(=O)[nH]2)CC1	3%
8	COc1ccc(C2C(C(=O)N3CCCC3)c3cc(OC)c(OC)cc3C(=O)N2C)cc1 (stereo not drawn)	37%
9	CC(=O)C1=C(O)C(=O)N(C)C1c1ccccc1F (stereo not drawn)	-4%
10	CC(C)NS(=O)(=O)c1ccc(OCC(=O)NCc2ccccc2)cc1	2%

Other compounds:
No.	SMILES	AmpC nodet inh
11	COCC(=O)N1CCC2(CCCN(Cc3cc(C(F)(F)F)cc(C(F)(F)F)c3)C2)CC1	26%
12	CCSC1=C(C#N)C2(CCCCC2)C(C#N)C(=O)N1 (stereo not drawn)	0%
13	O=C(NCC(=O)N(c1cnc2ccccc2c1)C(C(=O)NC1CCCC1)c1ccncc1)c1ccco1 (stereo not drawn)	34%
14	O=C(Oc1ccc2c(c1)OCO2)c1ccc(F)cc1Cl	-11%
15	CC(C)C(C)(C#N)NC(=O)CSc1nc2scc(-c3ccco3)c2c(=O)n1-c1ccccc1 (stereo not drawn)	32%
16	CCCCOc1ccccc1NC(=O)c1ccco1	11%
17	CC(=O)Nc1ccc(S(=O)(=O)NCCSc2ccccn2)cc1	71%
18	CC1(C)CC(N=C=O)CC(C)(CN=C=O)C1 (stereo not drawn)	18%
19	COc1ccc(CCNC(=O)c2nonc2N)cc1OC	-10%
20	O=[N+]([O-])c1ccccc1	-13%

The list goes on:
No.	SMILES	AmpC nodet inh
21	COc1ccc(-n2c(Cc3cccn3C)nnc2SCC(=O)N2CCCc3ccccc32)cc1	113%
22	O=C(O)c1ccccc1SCC(=O)N1CCCCC1	-5%
23	Cc1cccc(NC(=O)CSc2nnc(Cn3nnc(-c4ccccc4)n3)n2-c2ccccc2)c1	-5%
24	CCOC(=O)CN(C(=O)CSc1nnc(-c2ccc(OC)c(OC)c2)o1)c1ccccc1	120%
25	O=C(c1cccnc1)N1CCN(C(=O)c2ccccc2F)CC1	2%
26	C[C@H](N)CCCC(C)(C)O	-3%[12.8 µM]
27	Cc1ccc(S(=O)(=O)NCc2ccco2)c(C)c1C	0%
28	CN(CC(=O)NCc1ccc(F)cc1)S(=O)(=O)c1cccc2nsnc12	4%
29	O=C(C1CCCCC1)N1CCCC(c2nc(-c3ccc(F)cc3)no2)C1 (stereo not drawn)	44%
30	CC(=O)c1c(O)cc(C)n(Nc2nc(C)cc(C)n2)c1=O	2%

Further records follow:
No.	SMILES	AmpC nodet inh
31	COc1ccc(S(=O)(=O)N2CCCC(C(=O)Nc3cccc(C(C)=O)c3)C2)cc1 (stereo not drawn)	24%
32	COCCn1c(SCC(=O)NCC2CCCO2)nc2c(c1=O)SC(C)C2 (stereo not drawn)	-4%
33	NC(=O)C1CCN(C(=O)c2cnn(-c3ccccc3)c2NC(=O)c2ccco2)CC1	-4%
34	O=C(CSc1ccc2nnc(-c3ccccn3)n2n1)NCc1ccc2c(c1)OCO2	-1%
35	CCOC(=O)C1=C(N)Oc2cc(C)oc(=O)c2C12C(=O)N1c3c(cccc32)C(C)CC1(C)C (stereo not drawn)	120%
36	CCNc1ncc2nc(C)c(=O)n(-c3ccc(OC)cc3)c2n1	15%
37	CC(C)c1ccc(O)c(O)c(=O)c1 (tested in a mixture with another compound)	-5%[5.75 µM]
38	O=C(Nc1cccc(F)c1)N1CCC2(CCNCC2)CC1	8%
39	Cc1cccc(-n2c(Cc3ccccc3)nnc2SCC(=O)N2CCOCC2)c1	91%
40	N#C/C(=C/c1ccc(N2CCCCCC2)o1)c1ccc(F)cc1	-20%

Later entries:
No.	SMILES	AmpC nodet inh
41	CCOC(=O)c1[nH]c(C)c(C(=O)N2CCN(C(=O)c3ccco3)CC2)c1C	18%
42	CCOC(=O)c1cc2c(C(F)(F)F)cc(-c3cccnc3)nc2o1	12%
43	Cc1cccc(S(=O)(=O)NCCC(=O)OC(C)C(=O)NC(=O)NC2CCCCC2)c1 (stereo not drawn)	22%
44	CC(C)CCn1c(N2CCN(Cc3ccccc3)CC2)nc2c1c(=O)[nH]c(=O)n2C	104%
45	c1ccc2c(c1)sc1nnnn12	1%
46	Cc1nnc(SCCn2c(N3CCC(C)CC3)nc3c2c(=O)[nH]c(=O)n3C)s1	27%
47	COc1ccc(OCC(=O)Nc2ccc(S(=O)(=O)N3CCCCCC3)cc2)cc1	?
48	COc1ccc2nc(SCC(=O)N3CCNC3=O)[nH]c2c1	-1%
49	CCCn1c(-c2ccc(F)cc2)nc2c(NCCCN(CCO)CCO)nc(C)nc21	34%
50	Nc1cc(-c2cccc(F)c2)nn1S(=O)(=O)c1cccc2nsnc12	-13%

Following part:
No.	SMILES	AmpC nodet inh
51	CC(C(=O)Nc1cc(C(F)(F)F)ccc1N1CCOCC1)N1C(=O)C2CC=CCC2C1=O (stereo not drawn)	32%
52	c1ccc2nc(N3CCNCC3)ccc2c1	-6%
53	COCCCNc1ncnc2nc[nH]c12	-5%
54	Cn1c(=O)[nH]c(=O)c2c1nc(CN1CCOCC1)n2CCCO	1%
55	Cn1c(SCc2nc3ccccc3s2)nnc1-c1ccc2c(c1)OCO2	17%
56	O=C1NC(=O)C(CCc2ccncc2)(C2CCCCC2)C(=O)N1	-2%
57	CCOC(=O)Cn1c(N)c(C(=O)OC)sc1=S	0%
58	CCSc1nnc(-c2ccc(S(=O)(=O)N3CCCC3)cc2)n1C	9%
59	CSc1ccccc1NC(=O)c1ccco1	-3%
60	CC1(C)[C@@H]2CC[C@@]1(C)C(=O)C2	3%

Other entries.
No.	SMILES	AmpC nodet inh
61	CCCNc1ncnc2sc(C)c(C)c12	-6%
62	O=C(c1cc2ccccc2o1)N1CCN(c2ccccc2Cl)CC1	37%
63	COc1ccc(Cl)c(Cn2c(NCCCN(C)C)nc3c2c(=O)n(C)c(=O)n3C)c1	4%
64	S=c1[nH]ncn1-c1ccccn1	6%
65	O=C(COc1ccc2ccccc2c1CN1CCOCC1)N1CCc2ccccc21	103%
66	CCOC(=O)c1c(C)[nH]c(C(=O)OCC(=O)N2CC(C)OC(C)C2)c1C (stereo not drawn)	69%
67	CCOC(=O)CSc1nnc(NC(=O)c2cccc(S(=O)(=O)N3CCCC3)c2)s1	-13%
68	Cc1ccc(C)n1CCN1CCN(CC(=O)Nc2cc(C(F)(F)F)ccc2Cl)CC1	111%
69	Cc1nc2cnc(N(C)C)nc2n(CCC#N)c1=O	1%
70	Cc1cc(NC(=O)CSc2nnc3c(C)cc4ccccc4n23)no1	13%

Quoted from above, nos. 55–70
No.	SMILES	AmpC nodet inh
55	Cn1c(SCc2nc3ccccc3s2)nnc1-c1ccc2c(c1)OCO2	17%
56	O=C1NC(=O)C(CCc2ccncc2)(C2CCCCC2)C(=O)N1	-2%
57	CCOC(=O)Cn1c(N)c(C(=O)OC)sc1=S	0%
58	CCSc1nnc(-c2ccc(S(=O)(=O)N3CCCC3)cc2)n1C	9%
59	CSc1ccccc1NC(=O)c1ccco1	-3%
60	CC1(C)[C@@H]2CC[C@@]1(C)C(=O)C2	3%
61	CCCNc1ncnc2sc(C)c(C)c12	-6%
62	O=C(c1cc2ccccc2o1)N1CCN(c2ccccc2Cl)CC1	37%
63	COc1ccc(Cl)c(Cn2c(NCCCN(C)C)nc3c2c(=O)n(C)c(=O)n3C)c1	4%
64	S=c1[nH]ncn1-c1ccccn1	6%
65	O=C(COc1ccc2ccccc2c1CN1CCOCC1)N1CCc2ccccc21	103%
66	CCOC(=O)c1c(C)[nH]c(C(=O)OCC(=O)N2CC(C)OC(C)C2)c1C (stereo not drawn)	69%
67	CCOC(=O)CSc1nnc(NC(=O)c2cccc(S(=O)(=O)N3CCCC3)c2)s1	-13%
68	Cc1ccc(C)n1CCN1CCN(CC(=O)Nc2cc(C(F)(F)F)ccc2Cl)CC1	111%
69	Cc1nc2cnc(N(C)C)nc2n(CCC#N)c1=O	1%
70	Cc1cc(NC(=O)CSc2nnc3c(C)cc4ccccc4n23)no1	13%

(cont.)
No.	SMILES	AmpC nodet inh
71	Cc1cnc(CNc2ccnc(-c3ccccc3C(F)(F)F)n2)cn1	18%
72	CCN(CC)S(=O)(=O)c1ccc(C(=O)Nc2ccc(OCC(=O)N3CCOCC3)cc2)cc1	71%
73	CCOC(=O)CSc1nc2cc(C(=O)NCc3ccco3)ccc2c(=O)n1C1CCCCC1	4%
74	COCC(=O)NCc1ccc2c(c1)OCO2	-3%
75	COC(=O)c1cc(OC)c(OC)cc1NC(=O)c1c(-c2ccccc2Cl)noc1C	112%
76	Clc1ccc(OCc2nc(-c3ccncc3)no2)c(Br)c1	117%
77	Nn1c(Nc2ccccc2)nc2ccccc2c1=O	12%
78	CCOC(=O)/C(C#N)=C1/CCCCCN1C	3%
79	CCOC(=O)Oc1ccc2oc(C)c(C(=O)OCCOC)c2c1	58%
80	COc1ccc(NC(=O)C2=C(C)C(=O)OC23CCC(C)CC3)c(OC)c1 (stereo not drawn)	61%

The results go on:
No.	SMILES	AmpC nodet inh
81	CNC(=O)c1cc2c(=O)n3cc(C)ccc3nc2n(Cc2ccco2)c1=N	4%
82	Cn1c[n+](C)cc1C(O)c1ccccc1 (stereo not drawn)	-10%
83	Cc1cc(C(=O)Nc2ccc3c(c2)OCO3)cs1	-9%
84	CSCCC(NC(=O)c1ccccc1)C(=O)NC1CCCC1 (stereo not drawn)	-1%
85	CCCn1c2ccccc2c2nnc(SCC(=O)OC)nc21	8%
86	COc1ccccc1S(=O)(=O)Cc1ccc(C(=O)N2CCN(c3cccc(Cl)c3)CC2)o1	117%
87	COc1ccc(Nc2nc(C)cc(C)c2C#N)cc1OC	52%
88	Cc1ccc2[nH]cc(C(=O)CN3CCN(c4ccccn4)CC3)c2c1	?
89	COc1ccc(Cl)cc1C(=O)Nn1cnc2ccccc2c1=O	-3%
90	Cc1ccc(-n2nc(C)c(C3C(C#N)=C(N)OC4=C3C(=O)CCC4)c2Cl)cc1 (stereo not drawn)	48%

(cont.)
No.	SMILES	AmpC nodet inh
91	O=P(O)(CN1CCCCCC1)CN1CCCCCC1	-2%
92	O=C(O)Cn1c(=O)oc2cc(S(=O)(=O)NC3CCCCC3)ccc21	2.5µM*[single pt active]
93	CN(C)c1ccc(CNC(=O)C2(C)C=CCN2C(=O)c2ccccc2)cc1 (stereo not drawn)	7%
94	O=C(NC(Cc1ccccc1)C(=O)N1CCC2(CC1)OCCO2)C1CCCCC1 (stereo not drawn)	35%
95	O=C1c2ccccc2C(=O)N1C/C=C/CN1C(=O)c2ccccc2C1=O	-10%
96	COC(=O)[C@@H](NC(=O)Nc1ccc(C(C)=O)cc1)C(C)C	-8%
97	CC(C)c1ccc(NC(=O)N2CCC(c3nc4ccccc4o3)CC2)cc1	17%
98	CCCCOc1ccc(NC(=O)C2CC=CCC2C(=O)O)cc1 (stereo not drawn)	-2%
99	COCCNC(=O)CN(C(=O)CCC(=O)Nc1ccccn1)c1ccc(F)c(Cl)c1	38%
100	Cc1ccccc1Cn1c(=O)n(Cc2ccco2)c(=O)c2ccccc21	9%

Next section:
No.	SMILES	AmpC nodet inh
101	Cc1cc2n(n1)C(c1ccc(O)cc1)Nc1ccccc1-2 (stereo not drawn)	-12%
102	COc1cc2[nH]c(=O)n(CCCCCC(=O)N3CCN(c4ccccc4)CC3)c(=O)c2cc1OC	136%
103	O=[N+]([O-])c1ccccc1CCl	-10%
104	COc1nc(-c2ccccc2)cc(-c2ccccc2)n1	22%
105	CCCC(=O)N=C1SC2CS(=O)(=O)CC2N1c1ccc(C(C)=O)cc1 (stereo not drawn)	-5%
106	CCN(CC)CCNC(=O)Cn1c(-c2ccccn2)nc2ccccc21	-4%
107	CC(C)CN1CC2(CCN(C(=O)c3cnccn3)CC2)C1	8%
108	C=CCn1cc(C(=O)NCc2cccnc2)c(=O)c2cc(S(=O)(=O)N(CC)CC)ccc21	117%
109	c1ccc(OCc2nc(-c3ccccc3)no2)cc1	8%
110	COc1cc2c(cc1OC)CN(CC(=O)NC(=O)NCc1ccco1)CC2	29%

(cont.)
No.	SMILES	AmpC nodet inh
111	CCCCOc1ccc(C2C3CN(C(=O)OCC)CC=C3C(C#N)=C(N)C2(C#N)C#N)cc1OC (stereo not drawn)	29%
112	COc1ccc(-c2cc(C(F)(F)F)nc(N3CCN(C)CC3)n2)cc1	129%
113	CC(C)(C)n1c(=O)[nH]c2c(c1=O)CCC2	-2%
114	O=C(NCc1cccnc1)c1cccc(S(=O)(=O)N2CCOCC2)c1	2%
115	Cc1cc(C(=O)CN2CC(C)OC(C)C2)c(C)n1-c1ccccc1 (stereo not drawn)	4µM*[single pt active]
116	COC(=O)CC1=C(C(=O)OC)C2(C(=O)N(C)c3ccccc32)C(C#N)=C(N)O1 (stereo not drawn)	15%
117	O=C(Oc1cccnc1)c1ccc(Cl)c(Cl)c1	16%
118	Cc1ccc(-c2csc(N)n2)s1	?
119	COc1ccc(NC(=O)c2oc3ccccc3c2NC(=O)c2ccco2)c(OC)c1	53%
120	CCOc1ccc(C2N(c3ccc(OC)cc3)C(=O)C3CCCN32)cc1OC (stereo not drawn)	33%

Continued:
No.	SMILES	AmpC nodet inh
121	CN1CCN(c2ncc3nc(CCc4ccccc4)c(=O)n(Cc4cccs4)c3n2)CC1	164%
122	N#Cc1cccc(-c2ccc3ncnc(N4CCNCC4)c3c2)c1	10%
123	O=c1c2ccccc2nnn1CSc1nnc(C2COc3ccccc3O2)n1-c1ccccc1 (stereo not drawn)	65%
124	CC(C)c1ccc(OCC(O)CN2CCN(c3ccccc3)CC2)cc1 (stereo not drawn)	92%

Not all compounds are listed (hit frequency here may not be typical).
